Vif TR-FRET: inhibitors of Vif binding to APOBEC3G peptide, primary screen, biochemical, TR-FRET, GST-Vif 1-94, biotin-A3G peptide, dose response retest (AID 1117319); TR-FRET GST-Vif / biotin-A3G peptide binding; higher % means a stronger effect; test concentration not given here; strong numbers were not always called active; inhibition, %; hits with a dose series show IC50 in µM; 260,000 tested, 0.57% active;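 active = above the screen mean plus three standard deviations and confirmed in dose response; inconclusive = results disagree or hit not tested in dose response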;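 note: Vif residues 1-94 fused to GST binding biotinylated APOBEC3G peptide 110-148; 0% = full assay without inhibitor and 100% = GST in place of GST-Vif; retest series ran down from 100 µM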
RanGTP-Imp inh: inhibitors of RanGTP-importin-beta interaction, primary screen, biochemical, FRET, CFP-Ran, YFP-importin-beta, homogeneous; inhibition, % (no concentration beside the values); 300,000 tested, 1.1% active; cell-free CFP-Ran/YFP-importin-beta FRET ratio;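 active = most replicates above 15%; inconclusive = exactly half above 15%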;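 note: 0% = DMSO wells and 100% = Ran loaded with GDP instead of GTP; wells of about 40 µL received 100 nL stock; the first replicate is given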
HNF4A DNA FP: change in binding of human HNF4 alpha to DNA. 360,000 tested, 0.3% active. AID 1224865. P41235. activity change, % at 10 µM. HNF4a-FITC DNA binding, fluorescence polarization, 1 h; in the data active = activity change above about 30%, passing the limit was not always enough;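 note: controls were the assay level and a saturating level of protein; the project sought stronger binding though the title names inhibitors; some compounds called inactive have numbers as strong as hits; positive values seem to mean higher polarization but the record does not say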
Target sequence (P41235 whole entry, looked up): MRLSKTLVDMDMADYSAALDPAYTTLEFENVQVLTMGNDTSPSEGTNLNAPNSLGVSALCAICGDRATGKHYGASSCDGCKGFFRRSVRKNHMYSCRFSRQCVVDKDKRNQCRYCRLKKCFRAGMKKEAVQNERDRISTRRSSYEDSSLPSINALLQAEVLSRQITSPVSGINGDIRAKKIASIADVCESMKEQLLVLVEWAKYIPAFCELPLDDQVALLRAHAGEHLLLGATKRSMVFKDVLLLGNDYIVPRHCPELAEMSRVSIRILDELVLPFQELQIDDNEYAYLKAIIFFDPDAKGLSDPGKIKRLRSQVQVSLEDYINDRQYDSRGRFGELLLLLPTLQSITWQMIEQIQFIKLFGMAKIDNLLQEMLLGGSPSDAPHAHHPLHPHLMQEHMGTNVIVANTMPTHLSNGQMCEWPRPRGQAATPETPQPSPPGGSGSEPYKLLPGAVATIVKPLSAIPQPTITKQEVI
E coli growth: E. coli growth inhibition; Escherichia coli growth, OD600, 23 h; active compounds read low; OD600 absorbance (test concentration not listed); 330,000 tested, 0.21% active;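 active = OD600 absorbance below the run mean of sample wells minus 3.6 SD, in any replicate, cut at about 0.56 in these data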;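 note: stock transfer was 300 nL into about 60 µL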
AF4-AF9 inh: MLL-AF4/AF9 protein interaction inhibition; P42568; AlphaScreen, biotin-AF4 peptide binding to FLAG-AF9; inhibition, % at 10 µM; 350,000 tested, 0.47% active; AID 651704;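 active = every replicate reaching a set inhibition limit, whatever the replicate mean, cut at about 25% in these data; inconclusive = mean inhibition reaches that limit but some replicates miss it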;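 note: 0% = plate neutral control median and 100% = total signal loss; the record names both 10 and 1 µM as test concentration; the first replicate is given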
UCH37 DUB inh: human UCH37 deubiquitinating enzyme inhibition. Q9Y5K5. purified proteasome/UCH37, Ub-AMC cleavage fluorescence. inhibition, % (test concentration not listed). 330,000 tested, 0.33% active;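 active = mean of two replicates above 20%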;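 note: 0% = compound-free wells with enzyme and 100% = wells lacking proteasome; stock transfer was 100 nL into about 20 µL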
Target sequence (Q9Y5K5 whole entry, looked up): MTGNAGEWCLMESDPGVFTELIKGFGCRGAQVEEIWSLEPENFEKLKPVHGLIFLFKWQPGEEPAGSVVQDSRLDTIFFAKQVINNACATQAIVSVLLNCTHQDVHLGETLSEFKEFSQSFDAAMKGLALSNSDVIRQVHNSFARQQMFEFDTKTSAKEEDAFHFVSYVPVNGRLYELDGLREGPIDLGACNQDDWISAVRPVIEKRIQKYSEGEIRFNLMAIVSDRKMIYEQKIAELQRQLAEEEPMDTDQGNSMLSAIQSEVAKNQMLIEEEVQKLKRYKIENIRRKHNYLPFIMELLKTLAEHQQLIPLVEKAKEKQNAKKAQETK
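System: Proteasome-associated human UCH37 deubiquitinase; Input: 0.15 nM proteasome in added enzyme buffer; Also added: Ub-AMC substrate from 1 µM stock; Incubation: 30 min compound-proteasome preincubation then 25 min substrate reaction, room temperature; Detection: fluorescence, ex 355 nm, em 460 nm; Read-out: % inhibition of Ub-AMC cleavage fluorescence; Benchmarks: no-proteasome and no-compound wells.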
FGF22 binding: binders of recombinant human FGF22 by thermal shift; Q9HCT0; SYPRO orange fluorescence; percent of sucrose octasulfate shift, DMSO zero; calls only at 9.99 µM; 340,000 tested, 1.5% active;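 active = melting point raised past a set limit in the mean and every replicate; inconclusive = no clear call; three in four hits are not shown here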
Target sequence (Q9HCT0 whole entry, looked up): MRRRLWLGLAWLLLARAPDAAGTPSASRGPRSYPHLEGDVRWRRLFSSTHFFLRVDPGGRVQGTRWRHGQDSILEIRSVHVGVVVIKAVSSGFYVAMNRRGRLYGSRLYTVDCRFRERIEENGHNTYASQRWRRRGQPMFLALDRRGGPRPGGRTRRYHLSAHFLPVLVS
An asterisk follows results filed as active; i = inactive; ? = inconclusive; . = not tested or not shown. These rows are one share of the data; the hit share may differ from the screen's.

Every second line gives: UCH37 DUB inh, FGF22 binding, AF4-AF9 inh, E coli growth, HNF4A DNA FP, Vif TR-FRET, RanGTP-Imp inh
Cc1onc(-c2c(F)cccc2Cl)c1C(=O)OCN1C(=O)c2ccccc2C1=O
 : 3.8, ., ., 0.69, 0.1, 0%, 0.1
CCN(CC)CCCNc1ncnc2scc(-c3ccc(F)cc3)c12
 : 4.8, i, 3.5, 0.65, -2.6, ., -5.9
O=C(Nc1cccc(S(=O)(=O)NC2=NCCC2)c1)c1c(F)cccc1Cl
 : ., i, -1.1, ., -1.3, ., 7.6
CCOC(=O)N1CCN(c2cc(N(C)CCO)c([N+](=O)[O-])c3nonc23)CC1
 : 5.1, i, 2.0, 0.7, 11, -17%, -5.2
C/C(=N/NC(=O)c1ccccc1)c1ccc(NC(=O)C(F)(F)F)cc1
 : ., i, -12, ., 1.9, 1%, 31*
CC(C)Oc1ccc(C2CNC(=O)C2)cc1 (stereo not drawn)
 : 2.3, ., 0.6, 0.7, 1.7, -1%, -8.3
COc1ccccc1-n1nc(C(=O)O)c2ccccc2c1=O
 : 2.0, ., ., 0.61, 3.0, 12%, 0.0
CC(C)[C@H](NC(=O)[C@H]1N2C(=O)c3ccccc3C2SC1(C)C)C(=O)NCc1ccco1 (stereo partly drawn)
 : 2.8, i, -0.6, 0.67, -11, 3%, 2.1
O=C(Nc1ccccc1)C(=O)c1cn(CC(=O)N2CCCCC2)c2ccccc12
 : 11, ., ., 0.68, -1.9, ., 8.6
O=C1CCCCC1Sc1nnc(Cc2cccs2)n1CCc1ccccc1 (stereo not drawn)
 : 2.5, ., ., 0.74, 1.9, 32%, .
O=C(O)CCS(=O)(=O)Cc1cccc(Cl)c1
 : 2.8, i, -41, 0.69, 6.1, 3%, -1.6
C[C@@H]1COc2cccc(N3CCC[C@H]3CO)c2S(=O)(=O)N1
 : ., i, -1.0, ., 2.6, ., .
O=C(N1CCCCC1)C12CC3CC(C1)CC(C(=O)N1CCCCC1)(C3)C2
 : 1.8, ., ., 0.78, -10, 0%, 1.8
COc1ccc(CNCCC(c2ccc(OC(C)C)cc2)c2ccccc2OC)cc1OC (stereo not drawn)
 : 4.3, i, 7.7, 0.62, 1.9, -2%, 2.0
Cc1nc(NC(=O)c2ccccc2)sc1-c1cc(C(=O)NCCO)nn1Cc1ccccc1
 : ., i, -0.3, ., -2.8, ., .
O=C(Nc1ccc2ccccc2c1)C(c1ccccc1)n1c(=O)c(-c2cc3ccccc3[nH]2)nc2ccccc21 (stereo not drawn)
 : ., i, -27, ., 2.6, ., .
Cc1ccc(CN2CCNC(=O)C2CC(=O)NCCCn2ncc3ccccc32)o1 (stereo not drawn)
 : 2.1, i, 1.0, 0.71, -1.8, 12%, .
CN(C)C(=O)CSc1nnc2sc3ccccc3n12
 : 7.2, ., ., 0.78, 2.8, ., 1.2
CCCNS(=O)(=O)c1ccc(OCC(=O)Nc2ccccc2F)cc1
 : 3.4, ., ., 0.77, 1.6, 15%, 1.7
COC(=O)Nc1ccc(C)cc1NC(=O)OC
 : -1.2, ., ., 0.67, -3.6, -13%, -2.8
COc1ccc(CCNC(=O)CCC(=O)N2CC(C)Oc3ccc(Cl)cc32)cc1OC (stereo not drawn)
 : 4.8, i, 5.5, 0.77, 8.8, ., -3.8
O=C(CN1CCOCC1)N/N=C/c1cc2ccccc2nc1Cl
 : ., ., ., ., -0.9, 9%, -2.2
Cc1nn(-c2ccc(F)cc2)c(Cl)c1/C=N/NC(=O)c1ccc(O)cc1
 : ., ., 1.0, ., 5.3, 4%, -0.9
CSc1ccc(C(c2c(C)[nH][nH]c2=O)c2c(C)[nH][nH]c2=O)cc1
 : ., i, 3.0, ., 3.9, 18%, 3.7
CNC(=S)Nc1cc2oc3ccccc3c2cc1OC
 : 4.0, i, 2.8, 0.62, 1.1, ., -1.8
CCOC(=O)c1cc(-c2ccc(C)c([N+](=O)[O-])c2)nc2c1c(=O)n(C)c(=O)n2C
 : 5.0, ., ., 0.73, ., -3%, 0.2
COc1cc(-c2noc(CCC(=O)Nc3cccnc3)n2)cc(OC)c1OC
 : -0.8, ., ., 0.71, 7.4, 2%, 5.0
COc1cccc(-c2nnn(CCc3nn[nH]n3)n2)c1
 : -1.2, ., ., 0.72, -2.9, -11%, 5.1
CNC(=O)CS(=O)(=O)CC(=O)Nc1cc(OC(C)C)c(Cl)cc1Cl
 : 2.2, ., 0.6, 0.66, -2.2, -4%, 3.6
CCc1noc(C)c1C(=O)NCCc1ccc(Cl)cc1
 : 1.7, i, -0.7, 0.66, 0.6, -1%, -2.4
O=C(CN1C(=O)/C(=C/c2ccccc2F)Sc2ccccc21)N1CCN(c2ccccn2)CC1
 : 0.0, i, 0.7, 0.68, 1.3, -2%, -0.5
CC(C)n1c(SCC(=O)Nc2ccccc2N2CCOCC2)nc2c1c(=O)n(C)c(=O)n2C
 : 1.0, ., ., 0.7, 2.3, 18%, 1.6
c1ccc(Nc2c(-c3ccco3)nc3ccccn23)cc1
 : ., ., ., ., 2.3, -3%, 4.7
Cc1ccc(S(=O)(=O)Oc2ccc(/C=C3/C(=N)N4C(=NC3=O)SN=C4S(C)(=O)=O)cc2)cc1
 : 14, i, 0.7, 0.7, 0.7, ., 6.3
Cc1nnc(N2C(=O)C(O)=C(C(=O)c3ccco3)C2c2ccc(C(C)(C)C)cc2)s1 (stereo not drawn)
 : -0.4, ., ., 0.74, -9.8, 3%, -10
COc1ccccc1NC(=O)CSc1nnc(Cn2cnc3ccccc32)o1
 : 0.9, ., -1.6, 0.69, 4.7, 6%, -0.1
C/C(=N/N=C(\C)c1ccccc1O)c1ccccc1O
 : ., i, -7.3, ., 12, -6%, -2.3
COc1ccc(CN(Cc2cc3cccc(C)c3[nH]c2=O)C(=O)N(C)C)cc1
 : -2.6, ., ., 0.73, -1.1, -3%, 3.5
O=C(O)C[C@H]1c2ccc(C(F)(F)F)cc2S(=O)(=O)N1Cc1ccccc1
 : -0.4, i, -0.3, ., 4.0, ., 2.9
Cc1ccc(S(=O)(=O)N2CCN(CCNC(=O)C(=O)Nc3ccc(F)cc3)CC2)cc1
 : 3.8, i, -10, 0.71, 0.4, -2%, 26
CNc1[nH]ncc1[N+](=O)[O-]
 : 6.3, i, -1.1, 0.71, 4.5, -1%, -7.7
COc1cc(C(=O)OCCCN=C2NS(=O)(=O)c3ccccc32)cc(OC)c1OC
 : 2.7, ., -2.4, 0.68, 0.1, -2%, 0.6
CC(OC(=O)Cn1[nH]c(=O)c2ccccc2c1=O)C(=O)Nc1cccc(Cl)c1 (stereo not drawn)
 : 1.3, i, -0.5, 0.67, 1.0, 9%, 8.5
c1ccc(-n2nnnc2Sc2ncnc3sc4c(c23)CCCC4)cc1
 : 0.8, ., ., 0.7, 1.6, ., 2.5
COc1ccc(Sc2nc(-c3ccccc3)ncc2C(=O)O)cc1
 : 1.8, ., 0.0, 0.64, 0.1, -1%, .
COc1ccc(S(=O)(=O)N(C(C)=O)c2ccc3oc(=O)sc3c2)cc1
 : 1.4, ., ., 0.69, 1.1, 88µM*, -0.3
Cc1cc(N2CCN(C)CC2)nc2ccc(NC(=S)NCCC(C)C)cc12
 : -11, i, 18, 0.67, 1.2, -1%, -5.4
CN(C)S(=O)(=O)c1cccc(NC(=S)NCCCn2ccnc2)c1
 : 1.4, i, 2.5, 0.69, 0.2, 4%, -1.3
CC(C)CC(C(=O)NCC1CCCO1)N(C(=O)Cn1nnc(-c2ccc(F)cc2)n1)c1cccc(C(F)(F)F)c1 (stereo not drawn)
 : 2.6, ., ., 0.71, 1.0, 1%, 8.8
CCc1nnc(NC(=O)C2CCCN2S(=O)(=O)c2ccc(F)cc2)s1 (stereo not drawn)
 : 1.0, ., ., 0.71, 1.9, -1%, 7.5

Remaining list, next part
Every second line gives: UCH37 DUB inh, FGF22 binding, AF4-AF9 inh, E coli growth, HNF4A DNA FP, Vif TR-FRET, RanGTP-Imp inh
O=C(c1cc(S(=O)(=O)N2CCCCC2)c(Cl)cc1N1CCOCC1)N1CCOCC1
 : -1.0, ., ., 0.73, 0.6, 18%, 1.6
Cc1nn(Cc2ccccc2Cl)c(C)c1N
 : -1.1, ., ., 0.74, -2.0, 4%, 1.5
CC(=O)N(C)c1nnc(-c2ccccn2)s1
 : -0.7, ., ., 0.68, -2.5, -5%, 1.3
CC(OC(=O)c1ccc2c(c1)OCCO2)C(=O)NC1CCCCC1C (stereo not drawn)
 : 0.6, i, -1.8, 0.62, -2.3, -7%, 5.1
CC(C)(C)C1CCC(=NNC(=S)Nc2cccnc2)CC1 (stereo not drawn)
 : 1.2, i, 1.3, 0.7, -2.2, -1%, 1.6
O=C(COC(=O)c1cccnc1Cl)NC1CCCCC1
 : ., i, 1.2, ., 1.2, ., .
COc1ccc(F)cc1S(=O)(=O)Nc1ccncc1
 : 2.1, i, 1.0, 0.67, 2.1, ., 5.7
CC(=O)c1c(N(C)C)ccnc1C(F)(F)F
 : 4.5, ., ., 0.71, 3.0, 13%, 1.8
C[C@@H]1O[C@@H](OC[C@H]2O[C@@H](Oc3c(-c4ccc(O)c(O)c4)oc4cc(O)cc(O)c4c3=O)[C@H](O)[C@@H](O)[C@@H]2O)[C@H](O)[C@H](O)[C@H]1O
 : ., i, -1.5, ., 0.0, -12%, -1.1
C/C(=N\NC(=O)COc1ccc2ccccc2c1)c1cccs1
 : ., i, -3.2, ., 2.8, 9%, -1.3
COc1ccc2c(c1)CCc1c(C(=O)NCC(C)C)noc1-2
 : -0.4, i, 0.7, 0.67, -1.3, ?, -1.6
Cc1ccc(NS(=O)(=O)c2cc(Br)cnc2N)cc1C
 : 3.5, i, -0.5, 0.71, 1.0, ., -3.8
Cc1cc(C)c2c(n1)sc1c(N3CCN(CCO)CC3)ncnc12
 : 0.9, ., ., 0.63, 4.9, 3%, 2.8
Cc1ccc(C)c(NC(=O)Cn2cc(C(=O)C3CC3)c3ccccc32)c1
 : 5.4, i, 2.6, 0.67, 1.9, ., 0.9
Nc1nc(-c2ccc([N+](=O)[O-])cc2)cs1
 : 6.1, ., ., 0.7, -2.2, ., 0.1
CN(C)c1ccc(N2CN=C3SCC(=O)N3C2)cc1
 : 2.2, ., ., 0.66, -3.9, -1%, -3.0
C/C(=N\Nc1nccnc1Cl)c1ccc(O)cc1
 : ., i, 0.3, ., -0.7, 3%, -2.8
Cc1cc(-c2nc3ncccc3o2)ccc1NC(=S)NC(=O)C(C)C
 : -5.8, i, -0.6, 0.69, 1.5, ., -2.4
COC(=O)c1cn(-c2nc3ccccc3s2)nn1
 : ., i, -2.6, ., 4.5, ., .
Cc1cc([N+](=O)[O-])nn1CCCC(=O)Nc1sc2c(c1C(N)=O)CCC(C)C2 (stereo not drawn)
 : 7.4, i, 28*, 0.7, 3.9, 5%, 5.3
CCOC(=O)C(Sc1ncc(C#N)c(N)n1)C(C)C (stereo not drawn)
 : 2.5, ., ., 0.7, 4.4, ?, 11
CCCC(=O)N1CCCC1(C)C(=O)N(C)Cc1cccc2ccccc12 (stereo not drawn)
 : ., i, 1.2, ., -2.0, ., .
FC(F)(F)c1ccccc1/C=N/N1CCN(Cc2ccccc2)CC1
 : ., i, 12, ., -3.4, 1%, 1.2
COC(=O)Nc1nc(-c2cc(Cl)ccc2Cl)cs1
 : 2.6, i, -1.6, 0.68, -1.4, -1%, 1.2
CCOc1ccc(NC(=O)C2CC(=O)NC(N3CCc4ccccc43)=N2)cc1 (stereo not drawn)
 : 5.2, ., ., 0.74, 3.6, -8%, -0.6
NC(=O)C1(N2CCCCC2)CCN(C(=S)Nc2ccc(Cl)cc2)CC1
 : -1.5, ., ., 0.71, -3.8, 0%, .
Cc1ccc(C(c2nnnn2CCc2ccccc2)N2CCC(C)CC2)cc1 (stereo not drawn)
 : 1.5, ., ., 0.68, 0.7, -5%, -1.1

High-throughput results deposited in PubChem BioAssay by several laboratories.
